StopGo RLuc: FMDV 2A StopGo reporter, Renilla signal; HEK cells with a luciferase reporter of 2A StopGo recoding; Potency, µM (highest dose often 57.5 µM), without a hit: top-dose signal change, negative = less light; actives 0.32% (n = 120,000); AID 1745857; active means well fitted falling curve with a large enough effect; inconclusive means small, poorly fitted or top-dose-only effect; inactive means no such curve, though single readings can be large or run the other way; further: nearly all actives have a fitted effect of over 55% in size; overnight with compound
2A firefly: lowers the firefly signal of an FMDV 2A StopGo reporter. HEK cells with a luciferase reporter of 2A StopGo recoding. Potency, µM (highest dose often 57.5 µM), without a hit: at the top dose signal change, negative = less light. actives 0.23% (n = 120,000). AID 1745856; active = well fitted falling curve with a large enough effect; inconclusive = small, poorly fitted or top-dose-only effect; inactive = no such curve, though single readings can be large or run the other way; further: nearly all actives have a fitted effect of over 60% in size; overnight with compound
* hit, by the source's call; ? = inconclusive; & = joins results of further samples; [ ] = remark or other dose. On the % scale 0 is the no-effect control and ±100 the full control effect; potency means the concentration at half of the fitted maximal effect. A portion of the library. The share of hits here may be higher or lower than overall.

SMILES	StopGo RLuc	2A firefly
CC(C)n1nc(C(=O)NCc2ccc3c(c2)OCO3)c2ccccc2c1=O	62%[activator]	0%
C=CCNC(=O)CSC(c1ccccc1)c1ccc(Cl)cc1 (stereo not given)	3%	-13%
CC1=C(c2ccc(C(C)C)cc2)S(=O)(=O)N=C1N1CCC(C(=O)NCc2ccc(C)o2)CC1	-3%	-3%
CCCc1c(C(=O)OCC)[nH]c2c1C(=O)CC(c1ccccc1)C2 (stereo not given)	71%[activator]	12%
O=C(COC(=O)c1nn(-c2ccccc2)c(=O)c2ccccc12)NC12CC3CC(CC(C3)C1)C2	3%	14%
O=C(Cn1c(=O)c2cc(Cl)ccc2n2nncc12)Nc1ccccc1	-7%	-7%
O=C(Cc1ccccc1)Nc1sc2c(c1C(=O)Nc1cccc(Cl)c1)CCCCC2	-14%	-20%
O=C(NC1CC1)c1cc(-c2ccccc2)nc2ccccc12	8%	19%
CCCc1nn(-c2cc(Cl)ccc2OC)c2c1C(=O)CC(C)(C)C2	32%[activator]	25%
Cc1ccc(S(=O)(=O)CC(=O)c2ccc(Cl)cc2)cc1	77%[activator]	17%
CCOc1ccc(CNc2cc(C)nc3nc(-c4cccc(C)c4)nn23)cc1OC	-6%	71%[activator]
CCCCNC(=O)CCCN1C(=O)c2ccccc2Sc2ncccc21	-10%	-16%
CC(C)(C)OC(=O)N1CCC(c2c(C(=O)NC3CCCCC3)cnn2-c2cccc(Cl)c2)CC1	29%	-18%
COC(=O)C1=C(CS(=O)(=O)c2ccc(C(C)(C)C)cc2)NC(=O)NC1c1ccc(O)cc1 (stereo not given)	-17%	-13%
O=C(c1sc2cc(Cl)ccc2c1Cl)N(Cc1ccccc1)C1CCS(=O)(=O)C1 (stereo not given)	-4%	-13%
Cc1ccc2c(c1)C1CC(c3ccccc3Cl)=NN1C1(CCN(S(C)(=O)=O)CC1)O2 (stereo not given)	10%	62%[activator]
Cc1ccc(NC(=O)Cc2csc(C)n2)c(C)c1	-6%	20%
O=Cc1ccc(-c2ccc(Br)cc2Cl)o1	-7%	26%
CC1C(c2ccc(F)cc2)=[N+]([O-])C(C)(c2ccc(Br)cc2)N1O (stereo not given)	82%[activator]	-2%
Cc1ccccc1OCCN(C)C(=O)c1cc(=O)[nH]c2ccccc12	5%	-1%
Cc1ccc(-c2nnc(CCC(=O)Nc3cccc(S(=O)(=O)NC4=NCCC4)c3)o2)cc1	7%	17%
Cc1cc(C)cc(NC(=O)CC2C(=O)Nc3nc(-c4ccccc4)nn32)c1 (stereo not given)	10%	19%
COC(=O)c1sc2ccccc2c1S(=O)(=O)Nc1cc(OC)c(OC)c(OC)c1	190%[activator]	13%
Cc1[nH]c2ccc(F)cc2c1C=O	-3%[1.06 µM]	18%
COc1ccc(C2CC(=O)C=C(Nc3ccc(F)cc3F)C2)cc1 (stereo not given)	15%	1%

(more compounds)
SMILES	StopGo RLuc	2A firefly
CCN[C@@H]1C[C@H](N)[C@@H](OC2OC(CN)=CCC2N)[C@H](O)[C@H]1O[C@H]1OC[C@](C)(O)[C@H](NC)[C@H]1O (stereo not given in full)	1%[0.46 µM]	?
Nc1cccc2ccc(C(=O)O)nc12	-7%	0%
CC1(/[N+]([O-])=C/c2ccco2)CCCCC1=O (stereo not given)	-1%	-4%
O=[N+]([O-])c1cc(S(=O)(=O)Nc2cccc(Cl)c2)ccc1N/N=C/c1ccccc1C(F)(F)F	89%[activator]	-25%
CCc1ccc2oc(C(=O)NCc3ccccc3)cc(=O)c2c1	25%&5%	39%&9%[activator]
CCN(CC)S(=O)(=O)c1ccc2c(c1)N(CC(=O)NCCc1ccc(OC)c(OC)c1)C(=O)CO2	-11%	-20%
COc1cc(/C=N/OCc2cccc(C(F)(F)F)c2)ccc1OCc1ccc(Cl)cc1	11%	210%[activator]
CCOC(=O)c1ccc(-c2ccc(C3NC(=O)NC(O)(C(F)(F)F)C3C(=O)c3ccccc3)o2)cc1 (stereo not given)	1%	14%
O=C(CCC(=O)N1CC2CCCN2c2ccccc21)NCc1cccc(Cl)c1 (stereo not given)	-11%	-19%
CC(Cc1c[nH]c2ccccc12)C(=O)NCc1ccco1 (stereo not given)	8%	-6%
CCCN1C=NS(=O)(=O)c2cc(C(=O)NC(C)(C)C)ccc21	70%[activator]	19%
COc1ccc(CCNC(=O)c2cccc(-n3c(C)nc4cccnc43)c2)cc1OC	-8%	-21%
CCOc1cccc(CNc2ccc(F)cc2)c1	8%	39%[activator]
N#Cc1ccccc1-n1cccc1C=O	-5%	1%
COc1ccc(-c2ocnc2C(=O)Nc2cc(C)ccc2OC)cc1	-6%	-3%
CN(C)c1ccc(NC(=O)c2ccc(N(C)C)cc2)cc1	7%	106%[activator]
CCOc1ccc(NC(=O)c2cc(=O)c3c(C)cc(C)cc3o2)cc1	-6%	1%
CCCC(=O)Nc1ccc(Cl)c(-c2nc3ccccc3o2)c1	0%	23%
Cc1ccccc1Nc1nn2c(=O)c3ccc(C(=O)NCc4cccs4)cc3nc2s1	-4%	-7%
O=C(CCc1ncc(-c2ccc(F)cc2)o1)Nc1cccc(C(=O)NC2CC2)c1	0%	9%
O=C(Nc1cccc(F)c1)c1nc2ccccc2nc1N1CCCCC1	-2%	-14%
CCN(CC)C(=O)CN(C)C(=O)c1cc2cc(Cl)ccc2nc1C	-13%	-6%
CC(C)(C)C(=O)Nc1ccc2nc(SCc3ccccc3)sc2c1	-16%	129%[activator]
CCc1ccc(N2CCn3c2nc2c3c(=O)n(CCc3ccccc3)c(=O)n2C)cc1	-10%	-1%
Cn1c(=O)[nH]c(=O)c2[nH]c(N3CCN(CCO)CC3)nc21	-7%	-6%

The list goes on:
SMILES	StopGo RLuc	2A firefly
COc1cc2ccccc2cc1C(=O)N1CCN(CC(=O)Nc2ccccc2Cl)CC1	-2%	-23%
CCN1C(=O)C2(CC(=O)Nc3[nH]ncc32)c2cc(C)ccc21 (stereo not given)	18%	0%
CC(C)N(Cc1ccc([N+](=O)[O-])cc1)c1ccccc1	-3%	-1%
O=C(CCNc1ncnc2nc[nH]c12)NCc1ccccc1	-5%	-1%
O=C(N[C@@H](Cc1ccc(O)cc1)C(=O)O)C(c1ccccc1)c1ccccc1	4%	3%
COc1ccc(N(C)C(=O)c2cc(C)nc3ccccc23)cc1OC	-1%	6%
COC(=O)c1c(NC(=O)c2cc3ccccc3c(=O)o2)sc2c1CCCC2	-1%	6%
Cc1ccccc1NS(=O)(=O)c1ccc2[nH]cc(C(=O)N3CCCCC3)c(=O)c2c1	-3%	-21%
N#C/C(=C\c1ccccc1)C(=O)Nc1ccc(Cl)cc1C(=O)c1ccccc1	-1%	14%
CC(OC(=O)c1cccc(O)c1)C(=O)NC(=O)NC1CCCC1 (stereo not given)	4%	11%
COc1ccc(NC(=O)c2sc3nc(-c4cc5ccc(OC)cc5oc4=O)[nH]c(=O)c3c2C)cc1	-18%	-17%
COc1ccccc1Oc1coc2cc(OCc3ccccc3)ccc2c1=O	-2%	107%[activator]
O=C(CCC1CCCO1)NC1CCCCCC1 (stereo not given)	2%	108%[activator]
CC(C)c1ccc2oc(=O)cc(CN3CCOCC3)c2c1	-10%	-3%
CCOc1ncccc1C(=O)N(CCC(C)C)c1c(N)n(Cc2ccccc2)c(=O)[nH]c1=O	8%	6%
CCOc1ccc(CNS(=O)(=O)c2c(C(=O)N3CCCCCC3)c(C)n(C)c2C)cc1OC	27%	-11%
O=C(NCCc1c[nH]c2ccccc12)Nc1ccccc1	12%	0%
CC(CNC(=O)c1csc(-c2ccsc2)n1)c1ccccc1 (stereo not given)	18%	144%[activator]
COC(=O)c1cccc(COC(=O)c2ccc(C(C)=O)s2)c1	-9%	9%
COc1ccc(-c2cc(C(F)(F)F)n3nc(C(=O)Nc4cccc(Cl)c4Cl)cc3n2)cc1OC	-10%	?
Cc1cccn2c(=O)cc(COc3ccc(NC(=O)C(C)C)cc3)nc12	1%&26%	-2%&-24%
Cc1cc(NC(=O)c2ccc(NC(=O)CCS(=O)(=O)c3cccs3)cc2)ccc1Br	-18%	7%
O=C(/C=C/c1ccccc1)c1cc2ccccc2o1	49%[activator]	87%[activator]
COc1ccc2c(C)c(CC(=O)NCc3ccccc3Cl)c(=O)oc2c1OC	-10%	3%
CCc1nn2c(=O)cc(COC(=O)Cc3ccccc3)nc2s1	0%	-14%

Next part
SMILES	StopGo RLuc	2A firefly
N#C/C(=C\c1ccc(-c2cccc(Cl)c2)o1)C(=O)Nc1cccc(C(F)(F)F)c1	-8%	9%
OC12CC3CC(C1)CC(NCc1cccs1)(C3)C2	3%	10%
CCOC(=O)C1CCN(C(=O)CCc2nc3sc4c(c3c(=O)[nH]2)CCCC4)CC1	-6%	10%
O=C(OCC(=O)N1CCCCC1)c1ccccc1-c1nc2ccccc2s1	98%[activator]	88%[activator]
COc1cccc(-c2cc(C(=O)NCCc3ccc(OC)c(OC)c3)no2)c1	12%	-1%
CSCCC(NC(=O)C1CCCCC1)C(=O)Nc1ccc(F)c(Cl)c1 (stereo not given)	12%	-7%
CCCCc1ccc(-n2nnnc2SCC(=O)Nc2cccc(OC)c2)cc1	-6%	59%[activator]
COc1ccc(-c2nc(Cn3nc(C)c4c(C)onc4c3=O)c(C)o2)cc1	21%	20%
COc1cccc(N2CC(NC(=O)C3CCCC3)CC2=O)c1 (stereo not given)	-5%	-9%
COc1ccc(OC)c(NC(=O)c2c(NCc3cccs3)sc3c2CCCCC3)c1	145%[activator]	28%
COC(=O)c1c(C)[nH]c(C(=O)C(C)OC(=O)c2ccccc2F)c1C (stereo not given)	-8%[1.06 µM]	24%
COc1ccc(OC)c(NC(=O)Cn2c(=O)cc(C)c3c(C)nn(-c4cccc(Cl)c4C)c32)c1	-21%	-5%
O=S1(=O)c2ccc(N3CCSCC3)cc2Oc2ccccc2CN1Cc1cn(Cc2ccc(Cl)cc2)nn1	92%[activator]	7%
CN1CCN(C2=Nc3cc(Cl)ccc3Nc3ccccc32)CC1	3%	0%[11.5 µM]
CC(=O)Nc1ccc(NC(=O)c2cc(-c3ccco3)nc3ccccc23)cc1	10%	23%
O=C(CCC(=O)c1ccc(Cl)cc1)OCc1ccc([N+](=O)[O-])cc1	-4%	-11%
COc1ccc(S(=O)(=O)NCCc2csc(-c3cccc(F)c3)n2)cc1C	257%[activator]	19%
CC(C)NC(C(=O)O)C(C)C (stereo not given)	-1%	4%
O=C(CSc1ncc(-c2ccc(Br)cc2)o1)N1CCCCCC1	5%	186%[activator]
Cc1[nH]c(=O)[nH]c(=O)c1CCC(=O)Nc1nccs1	-7%	-1%
C/C(=N/Nc1ccc(S(N)(=O)=O)cc1[N+](=O)[O-])c1ccc(-n2ccnc2)cc1	-2%	2%
COC(=O)c1cc(NCc2ccccc2)ccc1N1CCOCC1	10%	24%
O=C(CSC1CCCCC1)c1ccccc1Br	5%	180%[activator]
COc1ccc(C(=O)Nc2nc(-c3nnn(-c4cc(OC)ccc4OC)c3C)ns2)cc1	38%[activator]	-21%
O=C(Nc1ccc(Cl)cc1)N1Cc2cccn2-c2ccccc21	4%	90%[activator]

Filtered by structure, those above containing a thiophene ring, fused or not
SMILES	StopGo RLuc	2A firefly
O=C(Cc1ccccc1)Nc1sc2c(c1C(=O)Nc1cccc(Cl)c1)CCCCC2	-14%	-20%
O=C(c1sc2cc(Cl)ccc2c1Cl)N(Cc1ccccc1)C1CCS(=O)(=O)C1 (stereo not given)	-4%	-13%
COC(=O)c1sc2ccccc2c1S(=O)(=O)Nc1cc(OC)c(OC)c(OC)c1	190%[activator]	13%
Cc1ccccc1Nc1nn2c(=O)c3ccc(C(=O)NCc4cccs4)cc3nc2s1	-4%	-7%
COC(=O)c1c(NC(=O)c2cc3ccccc3c(=O)o2)sc2c1CCCC2	-1%	6%
COc1ccc(NC(=O)c2sc3nc(-c4cc5ccc(OC)cc5oc4=O)[nH]c(=O)c3c2C)cc1	-18%	-17%
CC(CNC(=O)c1csc(-c2ccsc2)n1)c1ccccc1 (stereo not given)	18%	144%[activator]
COC(=O)c1cccc(COC(=O)c2ccc(C(C)=O)s2)c1	-9%	9%
Cc1cc(NC(=O)c2ccc(NC(=O)CCS(=O)(=O)c3cccs3)cc2)ccc1Br	-18%	7%
OC12CC3CC(C1)CC(NCc1cccs1)(C3)C2	3%	10%
CCOC(=O)C1CCN(C(=O)CCc2nc3sc4c(c3c(=O)[nH]2)CCCC4)CC1	-6%	10%
COc1ccc(OC)c(NC(=O)c2c(NCc3cccs3)sc3c2CCCCC3)c1	145%[activator]	28%

(more compounds)
SMILES	StopGo RLuc	2A firefly
COc1ccc(N2CCN(C(=O)Cc3noc4ccc(C)cc34)CC2)cc1	-2%	-7%
COc1ccccc1-c1nn(CCC(=O)Nc2cccc(C(C)=O)c2)c2nc(C)cc(C)c12	?	?
COc1ccc(NC(=O)C(NC(=O)/C=C\c2ccc3c(c2)OCO3)c2ccc(C)cc2)cc1 (stereo not given)	21%	1%
N#Cc1ccccc1S(=O)(=O)NCC(=O)O	-1%	3%
COCCNC(=O)c1ccc(-c2nc(CS(=O)(=O)c3ccccc3)c(C)o2)cc1	1%&-9%	1%&-13%
O=C(Nc1nnc(S(=O)(=O)N2CCOCC2)s1)c1cccc(Br)c1	-7%	67%[activator]
CCC(C)NC(=O)c1ccc2c(c1)OCCCO2 (stereo not given)	1%	56%[activator]
c1ccc2[nH]c(CN3CCCC3)nc2c1	9%	7%
O=CNN(C=O)c1ccccc1	5%	13%
COc1ccc(C2(Nc3cccc(F)c3)C(=O)c3ccccc3C2=O)cc1	5%	-7%
COc1ccc(OC)c2[nH]c(C(=O)N[C@@H](C)C(=O)N3CCN(Cc4ccccc4)CC3)cc12	-12%	-9%
Cc1ccc(CN(C(=O)Nc2cccc(Cl)c2)c2ccccn2)o1	26%	57%[activator]
CCOc1cc(C)c(N)cc1C(C)C	0%	-3%
CSc1ccccc1NC(=O)c1ccc(C)s1	16%	0%

Bioassay records: PubChem, National Center for Advancing Translational Sciences (NCATS)
